# nsP2pro inh – blocks chikungunya virus nsP2 protease peptide cleavage; Q8JUX6; FRET peptide cleavage, nsP2pro, fluorescence 1 h; Potency, µM (series often up to 24.9 µM), for inactives: at the highest dose activity change, negative = inhibition, actives largely listed as inhibitors; 31,000 tested, 1.1% active; active means well fitted inhibition curve with a large enough effect; inconclusive means small, poorly fitted or top-dose-only effect; inactive means no such curve, though single readings can be large or run the other way; note: nearly all actives have a fitted effect of over 60% in size; a reference inhibitor and vehicle were the controls
# * hit, by the source's call; i = inactive; ? = inconclusive; [ ] = another dose, or the depositor's remark. % is set by controls: 0 for no effect and ±100 for the full control effect; potency is the fitted concentration of half-maximal effect. Not all compounds are listed; the hit share may differ from the screen's.
molecule	nsP2pro inh
COc1ccc2[nH]c(CNc3cc(C4CC(N)C4)nc(C)n3)cc2c1 (stereo not drawn)	i
CCCc1cc(N2CCC(NCc3c(F)cccc3Cl)CC2)nc(C)n1	i
Cc1cccc(-c2cc(NC(=O)c3ccccc3C)n(-c3ccccc3)n2)c1	-21%
CN(C)CCOc1ccc(/C(=C(/CCCl)c2ccccc2)c2ccccc2)cc1	118%[activator]
Cc1ccc(CCNC(=O)c2c(C)oc3ncnc(N4CCOCC4)c23)cc1	-9%
CCOc1ccc(-c2nn(-c3ccccc3)cc2C2NC(=O)NC(C)=C2C(=O)OC(C)C)cc1C (stereo not drawn)	-2%
COc1ccc(CCNC(=O)C2=C(C)C(=O)OC23CCCCC3)c(OC)c1	-12%
CC(C)OC(=O)Nc1ccc2nc(-c3cscn3)[nH]c2c1	11%
COCCn1c(C)cnc1CCNC(=O)Cn1nc(C(F)(F)F)cc1C	4%
COCCOCC1(CNC(=O)c2cccnc2)C[C@@H](O)[C@@H](O)C1 (stereo partly drawn)	3%[39.2 µM]
N#Cc1c(-c2cc(C(F)(F)F)cc(C(F)(F)F)c2)no[n+]1[O-]	i
O=C1N[C@@H]2CCN(C(=O)c3ccc(-c4ccccc4)cc3)[C@@H]2C(=O)N1Cc1ccccc1	-1%[39.2 µM]
CC12CC34CC(O)C5C(CO)(CO)CC(=O)CC5(C)C3CC1C2C4 (stereo not drawn)	-6%
COc1ccc(-n2nc(C)c([C@@H]3C=C[C@@H](NC(=S)NCC(C)C)C3)c2C)cc1	44%[39.2 µM]
COc1ccc(-c2cc3onc(-c4ccncc4)c3c(=O)n2C)cc1	-6%
O=C(NC(c1ccco1)c1cc(Cl)c2cccnc2c1O)c1ccsc1 (stereo not drawn)	-15%
COc1cc(OC)c(NC(=O)NCCn2nnc3cc(S(=O)(=O)N(C)C)ccc32)cc1Cl	-6%
Cc1ccc2nc(-c3ccccn3)c(Nc3ccccc3C)n2c1	i
O=C(c1ccc2c(c1)ncn2-c1ccccc1)N1CCCCC1	0%
COCCCNC(=O)c1ccc(Cn2c(=O)c3ccccc3n(Cc3ccc(C)cc3)c2=O)cc1	-9%
Cc1cnc(Nc2ccc(F)cc2Cl)nc1-c1c[nH]c(C(=O)NC(CO)c2cccc(Cl)c2)c1 (stereo not drawn)	?
C1=C(c2cc(-c3ccncc3)cn3cncc23)CCOC1	?
CC(C)c1nc2c(NC(=O)Nc3cccc(Cl)c3)cccn2n1	i
O=C(NC1CCOCC1)c1cccc(S(=O)(=O)N2CCC[C@H]2CO)c1	3%
CC(C)[C@@H](C(=O)O)N1Cc2c(cc(O)c3c2O[C@]2(C3)[C@H](C)CCC3C(C)(C)[C@H](O)[C@H](O)C[C@@]32C)C1=O (stereo partly drawn)	1%[10 µM]
CC(C)c1ccc(NC(=O)CSC2=Nc3ccccc3C3=NC(CC(=O)NCCc4ccccc4)C(=O)N23)cc1 (stereo not drawn)	13%
O=C(NC1CCN(c2ccnc3ccnn23)C1)c1cc(F)ccc1Br (stereo not drawn)	0%
Cc1ccc(CCNC(=O)c2ccc3c(=O)n(-c4ccc(C)cc4)c(=O)[nH]c3c2)cc1	-17%
CCC(=O)N1CCc2cc(Br)cc(S(=O)(=O)CCC(=O)NCc3ccccc3OC)c21	-13%
Nc1ccc2cc3ccc(N)cc3nc2c1	?

# An excerpt from above in order of SMILES length, ascending.
molecule	nsP2pro inh
C1=C(c2cc(-c3ccncc3)cn3cncc23)CCOC1	?
CN(C)CCOc1ccc(/C(=C(/CCCl)c2ccccc2)c2ccccc2)cc1	118%[activator]
COc1cc(OC)c(NC(=O)NCCn2nnc3cc(S(=O)(=O)N(C)C)ccc32)cc1Cl	-6%
O=C1N[C@@H]2CCN(C(=O)c3ccc(-c4ccccc4)cc3)[C@@H]2C(=O)N1Cc1ccccc1	-1%[39.2 µM]

# Later entries
molecule	nsP2pro inh
Cc1nc(N2CCOCC2)c2c(C(=O)N(C)Cc3ccccc3)c(C)oc2n1	-17%
COc1cccc(-c2nccc3c(=O)cc(N(C)C)oc23)c1	-3%[39.2 µM]
Cc1cccc(N2CCN(S(=O)(=O)c3ccc4c(c3)CCCN4C(=O)C3CCC3)CC2C)c1 (stereo not drawn)	-20%
CC(=O)Nc1ncc(S(=O)(=O)Nc2cnccc2C(=O)Nc2nc(-c3ccccc3)cs2)s1	i
CN(c1ncnc2onc(-c3cccc(Cl)c3)c12)C1CCCCC1	-18%
CCC(=O)N1CCc2sc(C(=O)NCCCOC)cc2C1	-6%
Cc1ccc(S(=O)(=O)Nc2cnccc2C(=O)Nc2nc(-c3ccc(Cl)c(Cl)c3)cs2)cc1	i
FC(F)c1nc2ccccc2n1-c1nc(N2CCOCC2)nc(N2CCOCC2)n1	?
CNC(=O)[C@@H]1CN(Cc2ccncc2)C[C@H]1COC	-9%
Cc1cc(N2CCCCC2)nc2ccccc12	-12%
Cc1cc(C)nc(NC(=S)N2CCN(c3ccc(Cl)c(Cl)c3Cl)CC2)c1	i
COc1cc(C2Oc3c(O)cc(CCCO)cc3C2CO)ccc1O[C@H]1O[C@H](C)[C@@H](O)[C@H](O)[C@@H]1O (stereo partly drawn)	9%[10 µM]
COC[C@@H]1CN(Cc2ccco2)C[C@H]1C(=O)N(C)C	4%
CN(C)c1oc(-c2cccc3ccccc23)nc1C#N	i
COc1ccc(-c2nc(-c3cccc(C(=O)O)c3)no2)cc1	?
O=C(NCCc1nc2ccccc2n1CCOc1ccc(F)cc1)C1CCCCC1	-1%
COc1ccc(NC(=O)CSc2nnc(-c3nonc3NC(C)=O)n2-c2ccccc2)cc1	-10%
COCCn1c(COc2c(F)ccc(Cl)c2F)nnc1C1CC(N)C1 (stereo not drawn)	i
O=C(CC1C(=O)NCCN1Cc1ccoc1)NCc1nnc2n1CCCCC2 (stereo not drawn)	-25%
Cc1ccc(N2CC(NC(=O)c3cc4ccccc4o3)CC2=O)cc1C (stereo not drawn)	-16%
Cc1cnc(CCNC(=O)c2cccs2)n1C1CCC1	1%
C=C(C)[C@@H]1CC[C@]2(C(=O)O)CC[C@]3(C)[C@H](CC[C@@H]4[C@@]5(C)CC[C@H](O)C(C)(C)[C@@H]5CC[C@]43C)[C@@H]12	-14%
Cc1ccccc1OCc1nc2c3cnn(-c4cccc(F)c4)c3ncn2n1	-14%
O=C(c1cnccn1)N1C[C@@H]2OCC(=O)N(CC3CCCCC3)[C@@H]2C1	-29%[39.2 µM]
CC(=O)O[C@@H](CO[C@@H]1O[C@H](CO)[C@H](O)[C@H](O)[C@H]1O)[C@]1(C)C=C2CC[C@@H]3C(C)(C)[C@@H](O)CC[C@@]3(C)[C@@H]2CC1	-16%[10 µM]
Cc1nc2ccc(Nc3nc(Nc4c(C)cc(C=CC#N)cc4C)nc4nc[nH]c34)cc2s1	i
COCCO[C@H]1C(=O)N(C2CCN(C(=O)c3cnccn3)CC2)[C@H]1c1ccncc1	4%
O=S(=O)(NCCn1cc(-c2cncnc2)nn1)c1ccc(Cl)cc1	?
CCCN(C)C(=O)Cn1c(C)ccc(NS(=O)(=O)c2ccc(C)cc2)c1=O	-13%
C/C=C/c1ccc2oc(-c3ccc(O)c(OC)c3)c(C)c2c1	17%

# The list goes on, starting with the last 4 of the part before.
molecule	nsP2pro inh
COCCO[C@H]1C(=O)N(C2CCN(C(=O)c3cnccn3)CC2)[C@H]1c1ccncc1	4%
O=S(=O)(NCCn1cc(-c2cncnc2)nn1)c1ccc(Cl)cc1	?
CCCN(C)C(=O)Cn1c(C)ccc(NS(=O)(=O)c2ccc(C)cc2)c1=O	-13%
C/C=C/c1ccc2oc(-c3ccc(O)c(OC)c3)c(C)c2c1	17%
Cc1ccc(C(=O)OC2=C(C(=O)c3ccccc3)N(C)S(=O)(=O)c3ccccc32)cc1	?
Cc1cnc(CCN)n1Cc1ccccc1	i
O=C(NCCN1CCC2(CC1)C(=O)NCN2c1cccc(F)c1)c1ccc(F)c(F)c1	2%
O=C(O)Cc1ccc(NC2(c3ccccc3)C(=O)c3ccccc3C2=O)cc1	?
Cc1cccc2nc(-c3cccc(NS(=O)(=O)c4ccccc4)c3)cn12	7%
COc1cccc(C(=O)N[C@H]2[C@H](O)[C@H](O)C[C@@H]2c2cccnc2)c1	4%[39.2 µM]
COc1ccc(C(=O)N2CCOC3(CCN(C(=O)CCN)CC3)C2)cc1	-10%
Nc1ncc(S(=O)(=O)N2CCOCC2)s1	-8%
CCOC(=O)c1c(C)[nH]c(C)c1S(=O)(=O)N(C)CC(=O)NCc1ccc(Cl)cc1	-18%
Cc1nn(CCC#N)c(C)c1[C@@H]1C=C[C@@H](NCc2ccc(F)cc2)C1	?
O=S(=O)(CC1CS1)c1ccc(Oc2ccccc2)cc1 (stereo not drawn)	?
C#CCNC(=O)CC[C@@H]1CNC(=O)[C@@H]2C[C@H](NC(=O)c3ccco3)CN12	-10%[39.2 µM]
O=C([C@H]1CN2CCC1C[C@@H]2Cn1cc(CCO)nn1)N1CCOCC1 (stereo partly drawn)	0%[39.2 µM]
C[C@]12C=CC(=O)C=C1CC[C@H]1[C@@H]3C[C@@H](O)[C@](O)(C(=O)CO)[C@@]3(C)C[C@H](O)[C@@]12F	-4%
O=C1NC2=C(C(=O)CCC2)C(c2ccccc2Cl)N1 (stereo not drawn)	-7%
CC(C)/C=C1\NC(=O)C(C(C)C)n2c1nc1ccccc1c2=O (stereo not drawn)	?
CN(Cc1cn(-c2ccccc2)nn1)Cc1noc2c1CCCC2	1%
CCOC(=O)N1CCC(NC(=O)c2cnn(-c3ccc(F)cc3)c2-n2cccc2)CC1	-9%
O=C(Nc1ccccc1)Nc1ccc2n(c1=O)C[C@H]1C[C@@H]2CN(C(=O)c2ccccc2)C1	-19%[39.2 µM]
COC[C@@H]1CN(S(=O)(=O)c2cnc[nH]2)C[C@H]1c1ccccn1	4%
Cc1nc(C)c(C(=O)N2CCCC(COc3ccccc3C(=O)N3CCCC3)C2)s1 (stereo not drawn)	-1%
COc1ccccc1CC(=O)N1CCN(c2cc(-c3cccs3)[nH]n2)CC1	1%
N#Cc1ccc(CN2CCC(N3CCOC3=O)CC2)cc1	?
Cc1oc(C(O)c2ccccc2)nc1C(=O)Nc1ccc(C(=O)Nc2ccccc2)cc1 (stereo not drawn)	4%[39.2 µM]
O=C(Nc1nc2c(F)cccc2s1)c1ccc(S(=O)(=O)N2CCOCC2)cc1	-18%
O=c1c(Nc2ccc(F)c(C(F)(F)F)c2)c(Nc2nnc(-c3ccncc3)s2)c1=O	i
Cc1ccccc1OCC(=O)Nc1cccn2nc(-c3cccnc3)nc12	-2%
O=C(Nc1ccccc1)NC1CCCN(c2ccc3nnc(-c4ccccc4)n3n2)C1 (stereo not drawn)	-1%
CC(=O)NC[C@@H]1C=C(C)[C@H](Cc2nnc(-c3cncn3C)o2)C[C@H]1C(C)C	?
C[C@]12CC[C@@H]3c4ccc(O)cc4CC[C@H]3[C@@H]1CC[C@@H]2OC(=O)CCC1CCCC1	?

molecule	nsP2pro inh
Cc1ccc(-c2cc(C(=O)Nc3ccc(C#N)cc3)c3ccccc3n2)cc1C	5%
Cc1cc(NS(=O)(=O)c2ccc(NC(=O)COc3cc(C)c(Br)cc3C(C)C)cc2)no1	210%[activator]
CN1CC(C(=O)NCc2cccs2)NC1=O (stereo not drawn)	-13%[39.2 µM]
CC(=O)N[C@@H](CC(C)C)C(=O)N[C@@H](CCC(=O)O)C(=O)N[C@@H](CCC(=O)O)C(=O)N[C@@H](CC(=O)O)C(=O)Nc1ccc2c(C(F)(F)F)cc(=O)oc2c1	-22%
Cc1nc(N2CCOCC2)c2nc(-c3ccccc3)n(CC(C)(C)CN(C)C)c2n1	-24%
Cc1cc(NS(=O)(=O)c2ccc(NC(=O)c3ccc(Cl)c(Cl)c3)cc2)no1	i
COc1ccc(NC(=O)c2oc3ccccc3c2NC(=O)C23CC4CC(CC(C4)C2)C3)c(OC)c1	-16%
Cc1nc(C)c(CCNS(=O)(=O)c2ccc(C)c(C)c2)s1	-24%
CCOC(=O)c1c(-c2ccccc2)csc1NC(=O)c1cc(-c2ccc(F)cc2)on1	-22%
COc1cc(C(=O)N2CCC(N3CCN(C)CC3)CC2)ccc1Nc1ncc2c(n1)N(C)c1ccccc1C(=O)N2C	34%[activator]
CC(C)(C)c1ccc(CSc2nc3ncc(Br)cc3[nH]2)cc1	i
N#Cc1cccc(CN2CC[C@H](c3nc4ccccc4o3)C2)c1	-2%[39.2 µM]
CCCn1ncc(C(=O)NCC2(O)CCCNC2)c1C (stereo not drawn)	-2%
Cc1ccc(CNc2ccccc2C(=O)Nc2nc(-c3ccccc3)cs2)cc1	-10%
CCOC(=O)C1CCN(C(=O)CN2c3ccc(CC)cc3-c3ccccc3S2(=O)=O)CC1	-21%
OC[C@@H]1CN(Cc2ccc(F)cc2)C[C@H]1c1nc(-c2ccncc2)no1	-12%
CN1CCN(C2=Nc3ccccc3Nc3ccc(Cl)cc32)CC1	2%
Cc1nc([C@@H]2CN(C(=O)c3sccc3C)C[C@H]2C(N)=O)n[nH]1	i
c1cncc(-c2ccc(CNc3nc(N4CCOCC4)nc4ccccc34)cc2)c1	-6%
COc1ccc(-c2csc3ncnc(Nc4ccc(OC)cc4OC)c23)cc1	-13%
COc1ccc(CN(Cc2ccccc2)C(=O)c2ccccc2N)cc1COc1ccc(NC(C)=O)cc1	-4%
COc1cc(-n2cnc3cc(-c4ccc(Cl)cc4)sc3c2=O)ccc1OCCN1CCCC1	46%[activator]

# Screens: PubChem BioAssay, National Center for Advancing Translational Sciences (NCATS)
